High-throughput results as filed in PubChem BioAssay.
Menin MLL FP FL: displaces fluorescein MLL peptide from human menin. Fluorescence polarization, fluorescein-MLL peptide displacement from menin. FP activity change, % at 61.4 µM. 290,000 tested, under 10 active; inconclusive = falling polarisation curve, or a change in total fluorescence; inactive = total fluorescence flat and polarisation flat or rising; no compound was filed as active; the % refers to the polarisation; negative = inhibition;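 note: % of control where 0% means no effect; inhibitors lower the polarisation; unlabelled MLL peptide was the positive control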
The depositor's hits bear a star; ? = inconclusive; & = joins results of further samples; [ ] = remark or other dose. A portion of the library. The share of hits here may be higher or lower than overall.

SMILES | Menin MLL FP FL
Cc1nc(/N=C(\N)Nc2ccccc2)nc2ccccc12 | -1.0
CCN(CC)C(=O)c1cccnc1 | 1.9
CC[C@H](C)C(=O)O[C@H]1C[C@H](O)C=C2C=C[C@H](C)[C@H](CC[C@@H](O)C[C@@H](O)CC(=O)O)[C@H]21 | -4.8
C[C@@H](C(=O)N[C@@H](CO)Cc1ccccc1)[C@@H]1C[C@@]1(C)[C@@H](NC(=O)OCc1ccccc1)c1ccccc1 | -2.6
O=C(c1cc(C(F)(F)F)cc(C(F)(F)F)c1)N1CCC[C@@]2(CCN(c3ncccn3)C2)C1 | 3.8
CC(C)Cn1nnnc1S(=O)(=O)CC#N | -2.8
O=c1c(-c2cc(F)cc(F)c2)nc2cnc(N3CCNCC3)nc2n1Cc1cccs1 | -2.1
CCC(=O)OC1(C)C(=O)C=C2C=C(CCCNC(=O)OC(C)(C)C)OC=C2C1=O (stereo not given) | -11
COC(=O)C1=C(C)N(Cc2ccccc2)[C@]23O[C@](C(=O)OC)(C(=O)N2C1c1ccccc1)C1CCOC(=O)C13 (stereo not given in full) | -1.3[11.7 µM]
COc1ccc(C(=O)N2CCC3(CC2)CCN(c2ccccn2)CC3)cc1 | -2.2
Cc1cc(/C=C/c2ccc3cc(N(C)C)ccc3[n+]2C)c(C)n1-c1ccccc1 | ?
Cc1ccc(C2C3=C(Nc4[nH]n(-c5ccccc5)c(=O)c42)c2ccccc2C3=O)cc1 (stereo not given) | ?
CC(C)C[C@H](NC(=O)[C@H](Cc1ccccc1)NC(=O)[C@H](Cc1ccccc1)NC(=O)[C@@H](N)CO)C(=O)N[C@@H](CCCN=C(N)N)C(=O)N[C@@H](CC(N)=O)C(=O)O | -7.5
c1ccc2sc(SSc3nc4ccccc4s3)nc2c1 | -0.7
c1ccc(CNc2ccnc(-c3ccc4c(c3)OCO4)n2)cc1 | -0.4
CN(N=O)C(=O)N[C@H]1[C@@H](O)[C@H](O)[C@H](CO)O[C@@H]1O | -0.6[24.8 µM]
CCCCC[C@H](O)/C=C/C=C/C=C/[C@@H](O)C/C=C\CCCC(=O)O | -3.1
COC1C(O)CC(=O)OC(C)C/C=C/C=C/[C@@H](OC2CCC(N(C)C)C(C)O2)C(C)C[C@@H](CC=O)[C@@H]1O[C@H]1OC(C)[C@H](O[C@@H]2C[C@@](C)(O)C(O)C(C)O2)C(N(C)C)C1O (stereo not given in full) | -5.2
O=C(CC1Oc2ccccc2NC1=O)NC1CC1 (stereo not given) | 4.2
CC(C)C[C@@H](CC(=O)N[C@@H](CCC(=O)O)CC(=O)O)NC(=O)[C@@H]1CCCC[C@H]1NC(=O)C[C@H](CCCN)NC(=O)C[C@H](CO)NC(=O)[C@@H]1CNCC[C@H]1N | -0.5
O=C(NCCCN1CCOCC1)c1ccc(Br)cc1Br | -0.4
CCNc1ncc2nc(C)c(=O)n(C3CC3)c2n1 | 3.0
CCCCCCc1c(C[C@H](N)C(=O)O)o[nH]c1=O | 8.8&23
CC(C)(C)C(=O)[C@@H]1[C@@H]2C(=O)N(Cc3ccccc3)C(=O)[C@@H]2[C@H]2c3ccccc3C=CN12 | 0.5
COc1cc2cc[n+]3cc4c(OC)c(OC)ccc4cc3c2cc1OC | -1.0
COc1cc(/C=N/NC(N)=O)ccc1OC(=O)c1ccc(C)cc1 | -0.1
O=C([O-])[C@@H]1[O][Sb+]([O][Sb+]2[O][C@H]([C@H](O)CO)[C@H](O)[C@H](C(=O)[O-])[O]2)[O][C@H]([C@H](O)CO)[C@@H]1O | 0.9
CC(=O)NCCNc1cc(-c2ccccc2C(F)(F)F)ncn1 | -3.5
COc1ccccc1-c1c(NC(=O)c2ccco2)n(-c2ccccc2)nc(C)c1=O | 4.3
CC(C)[C@@H](CC(=O)N[C@@H]1CCCC[C@H]1C(=O)N[C@H](CC(=O)N[C@@H](CCC(=O)O)CC(=O)O)Cc1c[nH]c2ccccc12)NC(=O)C[C@H](Cc1ccccc1)NC(=O)[C@@H]1CCCC[C@H]1N | 2.0

Looked up one by one from above (seven):
SMILES | Menin MLL FP FL
COc1ccccc1-c1c(NC(=O)c2ccco2)n(-c2ccccc2)nc(C)c1=O | 4.3
CC(C)(C)C(=O)[C@@H]1[C@@H]2C(=O)N(Cc3ccccc3)C(=O)[C@@H]2[C@H]2c3ccccc3C=CN12 | 0.5
CC(C)[C@@H](CC(=O)N[C@@H]1CCCC[C@H]1C(=O)N[C@H](CC(=O)N[C@@H](CCC(=O)O)CC(=O)O)Cc1c[nH]c2ccccc12)NC(=O)C[C@H](Cc1ccccc1)NC(=O)[C@@H]1CCCC[C@H]1N | 2.0
CCNc1ncc2nc(C)c(=O)n(C3CC3)c2n1 | 3.0
O=C([O-])[C@@H]1[O][Sb+]([O][Sb+]2[O][C@H]([C@H](O)CO)[C@H](O)[C@H](C(=O)[O-])[O]2)[O][C@H]([C@H](O)CO)[C@@H]1O | 0.9
COc1cc(/C=N/NC(N)=O)ccc1OC(=O)c1ccc(C)cc1 | -0.1
CCCCCCc1c(C[C@H](N)C(=O)O)o[nH]c1=O | 8.8&23

Next compounds.
SMILES | Menin MLL FP FL
COc1cc2ncnc(Nc3ccc(Cl)cc3F)c2cc1OC | -9.3
COc1cc(O)c2c(=O)c(O)c(-c3ccc(O)c(O)c3)oc2c1 | ?
COc1ccc(C(=O)N2CCC[C@@]3(CCN(C(=O)Nc4cccc(C#N)c4)C3)C2)cc1 | -6.7
CCCCC/C=C\C/C=C\C/C=C\C=C\C1CCCC(=O)O1 (stereo not given) | -4.2
O=C(O)c1cccc(C(=O)O)n1 | 0.8
CCNc1ncc2nc(-c3ccc(F)cc3)c(=O)n(Cc3ccc(F)cc3)c2n1 | -1.8
O=c1ncccn1[C@@H]1O[C@H](CO)C(O)[C@@H]1O (stereo not given in full) | 5.6
COc1ccc(Oc2ncc3nc(-c4ccc(OC)cc4)c(=O)n(Cc4cccs4)c3n2)cc1 | -0.5
COC(=O)[C@@]1(Cc2ccccc2)[C@H]2c3cc(C(=O)N(C)C)n(Cc4cc(C)n(C)n4)c3C[C@H]2CN1C(=O)c1ccccc1 | -2.9
COc1ccc(-n2c(=O)c(-c3ccccc3)nc3cncnc32)cc1 | -2.1
N#Cc1c(-c2ccccc2Cl)cc(-c2ccccc2)[nH]c1=S | -4.4
CCN(CC)CCCN1C(=O)C(=O)/C(=C(/O)c2ccc(OC)c(Cl)c2)C1c1ccco1 (stereo not given) | ?
COCCn1c(=O)c(C)nc2cnc(Oc3ccccc3)nc21 | 23
FC(F)(F)c1ccccc1-c1ccc2ncnc(NC3CCNCC3)c2c1 | -3.0
c1ncc(-c2ccoc2)c(NC2CC2)n1 | ?
COCCN(CCOC)c1nc(C)nc2c1nc(-c1ccccc1)n2CCN1CCCC1 | -0.4
N/C(Cc1cccc2ccccc12)=N\OC(=O)c1ccc(Br)o1 | ?
CCCn1c2c(c(O)c(C(=O)Nc3nc(C)cs3)c1=O)CCCC2 | 0.9
Cc1nc(NCc2ccccc2)c2nc(-c3ccccc3)n(CCCN3CCOCC3)c2n1 | -1.0
CO[C@H]1COC(=O)[C@@H](C)NC(=O)C/C=C\[C@@H](C)[C@H](OC)COC(=O)C/C=C\[C@@H]1C | -3.1[11.7 µM]
CCCCCCCCCCCCCCC/C=C/[C@@H](O)[C@H](NC(=O)CCCCCCCCCCCCC)OC (tested in a mixture with another compound) | 7.1
COC(OC)[C@@H](C)[C@H](OC)[C@@H](C)[C@H](OC)c1ccccc1 | -3.9[11.7 µM]
CCCCCCCC/C=C\C/C=C\C/C=C\CCCC(=O)O | -0.8
CC(C)C[C@H](NC(=O)[C@H](CCCCN)NC(=O)CNC(=O)[C@H](CC(C)C)NC(=O)[C@@H](N)C(C)C)C(=O)N[C@@H](CO)C(=O)N[C@@H](CCC(N)=O)C(=O)N[C@@H](CCC(=O)O)C(=O)N[C@@H](CC(C)C)C(=O)N[C@@H](Cc1cnc[nH]1)C(=O)N[C@@H](CCCCN)C(=O)N[C@@H](CC(C)C)C(=O)N[C@@H](CCC(N)=O)C(=O)N[C@H](C(=O)N[C@@H](Cc1ccc(O)cc1)C(=O)N1CCC[C@H]1C(=O)N[C@@H](CCCNC(=N)N)C(=O)N[C@H](C(=O)N[C@@H](CC(N)=O)C(=O)N[C@H](C(=O)NCC(=O)N[C@@H](CO)C(=O)NCC(=O)N[C@H](C(=O)N1CCC[C@H]1C(N)=O)[C@@H](C)O)[C@@H](C)O)[C@@H](C)O)[C@@H](C)O | -5.4
C[C@@H]1CN(CCCn2c3ccccc3c3ccccc32)C[C@H](C)N1 | ?
O=C(OCc1ccccc1)[C@@H]1COC(c2ccc(Br)cc2)=N1 | -0.3[94.6 µM]
C[C@@H]1O[C@@H](OC[C@H]2O[C@@H](Oc3cc(O)c4c(c3)O[C@H](c3ccc(O)c(O)c3)CC4=O)[C@H](O)[C@@H](O)[C@@H]2O)[C@H](O)[C@H](O)[C@H]1O | 1.5
CC[C@@H]1Cn2c(c3nc(-c4cc(Cl)cc(Cl)c4Cl)nc-3n(C)c2=O)N1 | 0.1
Fc1ccc([C@H]2CCNCC2COc2ccc3c(c2)OCO3)cc1 (stereo not given in full) | 0.0
CC(=O)O[C@@H]1C(CO[Si](C)(C)C(C)(C)C)=C(Br)C(=O)[C@@H]2O[C@]12C | -4.0
CC1(C)C2(Cl)C(Cl)C(Cl)C(Cl)(C(Cl)Cl)C1(Cl)C2Cl (stereo not given) | 3.0
O=C(CCC1CCCNC1)c1ccccc1 (stereo not given) | -0.7
COc1ccccc1-c1ccc2ncnc(N3CCOCC3)c2c1 | -7.4
C[C@]12C[C@H](O)C3[C@@H](CCC4=CC(=O)CC[C@@]43C)[C@@H]1CC[C@@H]2C(=O)CO (stereo not given in full) | 3.5
CCOC(=O)C(=Cc1ccccc1)C(=O)OCC | ?
COc1ccc(NC(=O)C2CCN(S(=O)(=O)c3cccc4cccnc34)CC2)cc1OC | -1.1
CCCCCCCCCCCCCCCC(=O)OCC(COC(=O)CCCCCCCCCCCCCCC)OC(=O)CCCCCCCCCCCCCCC | -3.3
Cc1cc2ncn(/N=C/c3cc(Br)ccc3O)c2cc1C | 15
Cc1ccc2nc3c(cc(C#N)c(=O)n3CCN3CCOCC3)c(=O)n2c1 | ?
CCNc1ncc2nc(C)c(=O)n(Cc3cccc(OC)c3)c2n1 | -1.8
COC(=O)NC(CC(C)=O)c1cccs1 (stereo not given) | -8.6[11.7 µM]
Cc1ccc2nc(Nc3nc(=O)c4ccccc4n3C)nc(C)c2c1 | -0.5
COCCCn1c(=NC(=O)c2ccc3c(c2)OCO3)c(C#N)cc2c(=O)n3cccc(C)c3nc21 | 3.2
CCN1C(=O)C=CC1=O | 1.7
CN(C)c1ccc(C2CC(c3ccccc3)=Nc3nc(-c4ccccc4)cn32)cc1 (stereo not given) | ?
COC(=O)c1ccc(C(NC(=O)OCc2ccccc2)/C(F)=C/[C@@H](C)C(=O)NCCO)cc1 (stereo not given in full) | -0.3
NC(N)=NCCC[C@H](NC(=O)[C@H](Cc1ccccc1)NC(=O)[C@@H]1CCCN1C(=O)[C@H](CO)NC(=O)[C@H](Cc1ccccc1)NC(=O)CNC(=O)[C@@H]1CCCN1C(=O)[C@@H]1CCCN1C(=O)[C@@H](N)CCCN=C(N)N)C(=O)O | -2.1
CC(C)CN1CCC2(CC1)CCN(C(=O)c1cc(C(F)(F)F)cc(C(F)(F)F)c1)CC2 | -1.7
COC(=O)c1cc2sc(Cl)cc2n1Cc1nc(-c2cccc(C)c2)oc1C | 0.7
CN(C)/N=N/c1nc[nH]c1C(N)=O | 3.6&-1.5

Next compounds follow.
SMILES | Menin MLL FP FL
COC(=O)[C@H](COC(C)(C)C)NC(=O)O[C@H]1C(=O)c2ccc(OC)cc2O[C@@H]1c1ccc2c(c1)OCO2 | 4.5
Cn1cccc1C(=O)N1CCC2(CCCN(C(=O)Nc3cccc(C#N)c3)C2)CC1 | 11
CCOC(=O)OCC1OC(c2ccccc2)C=CC1Oc1ccc2oc(=O)cc(C)c2c1 (stereo not given) | 3.6[11.7 µM]
O=C(c1ccco1)N1CCC2(CC1)CN(c1ccccc1)C2 | 3.1
CC[n+]1c(C)sc2sc3ccccc3c21 | ?
Cc1nc(NCc2ccccc2)c2nc(-c3ccccc3)n(CCN(C)C)c2n1 | 2.6
Nc1c(S(=O)(=O)O)cc(Nc2ccc(Cl)cc2)c2c1C(=O)c1ccccc1C2=O | -0.3
FC(F)(F)c1ccccc1-c1nc(NC2CC2)c2ccccc2n1 | ?
COc1cc(O)c2c(=O)cc(C)oc2c1CC=C(C)C | -0.5&-1.8
CC(=O)[C@H]1CC[C@@H]2[C@H]3CC=C4C[C@@H](O)CC[C@]4(C)[C@H]3CC[C@]12C | 4.4[24.8 µM]

The closing two records of the part before are carried over, then new ones follow:
SMILES | Menin MLL FP FL
COc1cc(O)c2c(=O)cc(C)oc2c1CC=C(C)C | -0.5&-1.8
CC(=O)[C@H]1CC[C@@H]2[C@H]3CC=C4C[C@@H](O)CC[C@]4(C)[C@H]3CC[C@]12C | 4.4[24.8 µM]
CC1(COc2ccc(C[C@H]3SC(=O)NC3=O)cc2)CCCCC1 | 54[activator]
CCCCCCC(=O)N(O)C1CC(=O)N(c2ccccc2)C1=O (stereo not given) | -2.1
C=C1CC/C=C(\C)CC[C@@H]2[C@@H]1CC2(C)C | ?
CO[C@@H]1COC(=O)[C@@H](CCSC)NC(=O)C/C=C\[C@@H](C)COC(=O)[C@H](C)NC(=O)C/C=C\[C@H]1C | 0.8[11.7 µM]
CCCn1c(C)nc2c(NCCN3CCOCC3)nc(C)nc21 | -1.9
CCOC(=O)C[C@@H](CC(C)=O)C(=O)OCC | -0.1[11.7 µM]
S=c1[nH]nc(-c2ccncc2)n1/N=C/c1cccc2ccccc12 | 4.4
C=C/C1=C/Cc2ccccc2[C@H](C[N+](=O)[O-])C(C(C)=O)(C(=O)OC)C1 (stereo not given in full) | 0.6&-3.4
COc1cccc(-n2c(CN3CCN(Cc4ccccc4)CC3)nc3ccc([N+](=O)[O-])cc3c2=O)c1 | 0.8
c1ccc2[nH]c(SN3CCOCC3)nc2c1 | -2.2
